# ALR H2O2 inh: blocks human ALR sulfhydryl oxidase activity; inhibition, % (concentration not given with the values); P55789; purified ALR, DTT oxidation, H2O2 HRP-luminol luminescence; 3.8% of 290,000 active;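 active = mean and each replicate at 75% or more; inconclusive = only one of the two met; inactive = neither met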;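 also: stock transfer was 7.5 nL into about 7.5 µL; 0% = neutral wells and 100% = wells with inactivated enzyme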
# Beta2AR agonist: agonists of human beta-2 adrenergic receptor inducing internalization; AID 504454; response, % (concentration not given with the values); 0.43% of 340,000 active; P07550; Am2.2-beta2AR cells, FAP receptor internalization, flow cytometry; reference of the scale not given here;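 active = response above a set limit, near 3 SD of response in nonfluorescent compounds, cut at about 42% in these data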;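 also: stock transfer was 100 nL into about 11 µL; a reference agonist was the positive control; negative values mostly stem from fluorescent compounds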
# Ecoli rRNA inh: inhibits bacterial ribosomal RNA function over humanized ribosomes | 1.6% of 350,000 active | GFP signal change (wild-type ribosome), % (concentration not given with the values) | E. coli WT GFP vs humanized-ribosome RFP mutants, fluorescence, 24 h; hits give low values; DMSO median 0, no signal -100 | AID 720706;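 active = significant combined selectivity score with lowered wild-type GFP, culture density cut under 30%, mutant RFP and density less affected; inactive = any of these conditions unmet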; also: one replicate is shown; some compounds called inactive have numbers as strong as hits
# Beta apoptosis: beta cell apoptosis inhibition. 0.8% of 300,000 active. protection from apoptosis, % (no concentration beside the values). INS-1E cytokine-induced death, ATP luminescence, 48 h; percent of positive-control rescue, neutral wells zero. AID 435005;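 active = all replicates at 75% or more, or half of them and the mean; inconclusive = half reach 75% but not the mean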;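 also: 0% = cytokine-treated negative control wells and 100% = positive control rescue; higher means more ATP so stronger rescue from cytokine killing; wells of about 40 µL received 100 nL stock; the first replicate is given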
# Calb FLC: affects C. albicans growth with fluconazole; growth inhibition, % (no concentration beside the values); 0.57% of 300,000 active; C. albicans CaCi-2 (fluconazole-resistant clinical isolate) + fluconazole, Alamar Blue growth, 48 h;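 active = most replicates above 75%; inconclusive = exactly half above 75%; inactive = most below 75%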;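 also: all wells also contain fluconazole at 8 µg/ml as a sub-toxic cotreatment; 0% = median of DMSO wells and 100% = median of geldanamycin control wells; wells of about 8 µL received 7.5 nL stock; the first replicate is given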
# T cruzi inh: blocks replication of Trypanosoma cruzi; T. cruzi beta-gal in NIH3T3, luminescence, 90 h; inhibition, % (concentration not given with the values); 1.4% of 300,000 active; AID 1885;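 active = mean inhibition across valid replicates above about 55%, limit read from the data; inconclusive = mean below that limit but half or more replicates reach it; inactive = mean below it, under half of replicates reach it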;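 also: signal also drops with host cell toxicity which is not excluded here; 0% = plate median of DMSO wells and 100% = zero luminescence signal; higher percent means less beta-gal luminescence so fewer parasites; stock transfer was 50 nL into about 50 µL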
# A1 inh: inhibitors of the anti-apoptotic protein A1, read as caspase activation. caspase activation, % (no concentration beside the values). MEF A1-2A-BIM cells, Caspase-Glo 3/7 luminescence, 3 h; percent of clofoctol response, vehicle zero. 0.066% of 330,000 active. AID 2462;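 active = over half of replicate activation scores above 10%, or exactly half above 10 with the replicate mean above 10; inconclusive = replicate mean below 10 yet half the replicates above 10; inactive = over half of replicates below 10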;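 also: wells of about 30 µL received 50 nL stock; many hits fall short of the cut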
# LANA-H2B inh: blocks KSHV LANA binding to histone H2A/H2B. Q9QR71. cell-free LANA-H2A/H2B peptide, fluorescence polarization. inhibition, % (concentration not given with the values). 0.6% of 320,000 active. AID 2629; in the data active = inhibition mostly above about 10%, no sharp cut-off; inactive = mostly below about 6.7%;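 also: stock transfer was 7.5 nL into about 10 µL; 0% = median of vehicle wells and 100% = median of positive control wells; one replicate is shown; the record names a cut of 25% in any replicate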
# Target sequence (Q9QR71 whole entry, looked up): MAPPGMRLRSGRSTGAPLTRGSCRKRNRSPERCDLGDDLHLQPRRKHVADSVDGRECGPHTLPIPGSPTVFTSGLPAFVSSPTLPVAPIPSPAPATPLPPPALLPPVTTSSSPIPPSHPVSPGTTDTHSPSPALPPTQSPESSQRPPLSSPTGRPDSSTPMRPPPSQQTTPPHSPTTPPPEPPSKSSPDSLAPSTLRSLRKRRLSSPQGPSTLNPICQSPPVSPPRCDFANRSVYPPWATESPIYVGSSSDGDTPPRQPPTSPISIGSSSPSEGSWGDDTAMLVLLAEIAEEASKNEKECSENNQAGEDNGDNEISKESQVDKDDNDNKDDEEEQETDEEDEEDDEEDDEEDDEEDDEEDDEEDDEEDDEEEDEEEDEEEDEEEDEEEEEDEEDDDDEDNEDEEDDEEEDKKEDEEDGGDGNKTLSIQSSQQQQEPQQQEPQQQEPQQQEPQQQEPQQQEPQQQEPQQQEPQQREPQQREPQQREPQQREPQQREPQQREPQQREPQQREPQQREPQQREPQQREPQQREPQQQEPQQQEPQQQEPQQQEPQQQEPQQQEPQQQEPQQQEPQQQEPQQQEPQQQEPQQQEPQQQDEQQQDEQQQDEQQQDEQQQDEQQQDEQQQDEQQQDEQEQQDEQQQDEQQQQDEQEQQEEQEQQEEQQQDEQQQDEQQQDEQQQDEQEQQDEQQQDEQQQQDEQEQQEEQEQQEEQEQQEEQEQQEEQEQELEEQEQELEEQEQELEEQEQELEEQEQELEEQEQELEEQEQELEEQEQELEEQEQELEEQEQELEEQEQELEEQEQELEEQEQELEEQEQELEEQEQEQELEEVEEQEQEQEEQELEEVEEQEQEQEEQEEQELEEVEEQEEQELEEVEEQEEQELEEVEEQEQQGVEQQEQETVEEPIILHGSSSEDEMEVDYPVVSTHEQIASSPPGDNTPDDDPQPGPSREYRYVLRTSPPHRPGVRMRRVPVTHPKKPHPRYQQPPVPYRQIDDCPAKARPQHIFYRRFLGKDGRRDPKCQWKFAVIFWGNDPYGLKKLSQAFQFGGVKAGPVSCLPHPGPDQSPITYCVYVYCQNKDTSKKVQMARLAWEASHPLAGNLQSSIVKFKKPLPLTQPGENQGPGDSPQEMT
# Ecoli rRNA inh OD600: second read-out of Ecoli rRNA inh, no call of its own (marks repeat the call); OD600 change, %; measured here: OD600 growth;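 optical density of the mix in the first replicate; 0 = DMSO median and -100 = no signal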
# Ecoli rRNA inh RFP: also measured in Ecoli rRNA inh; calls as there; RFP signal change, %; measured here: RFP humanized mutant strains;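 first replicate; 0 = DMSO median and -100 = no signal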
# Starred values were filed as active, the others as inactive; ? = inconclusive; nt = not tested or not shown. Only part of the results is shown; the hit share may differ from the screen's.
SMILES,ALR H2O2 inh,Beta2AR agonist,Ecoli rRNA inh,Ecoli rRNA inh OD600,Ecoli rRNA inh RFP,Beta apoptosis,Calb FLC,T cruzi inh,A1 inh,LANA-H2B inh
COc1ccc2[nH]c(=S)cc(C)c2c1,-28,3,18,14,3.4,5,1,-12,0.2,1.0
COc1ccc(NC(=O)CC2C(=O)N(c3ccc(F)cc3)C(=S)N2NC(=O)c2ccccc2)cc1 (configuration not stated),25,6,-2,11,-1.2,1,-1,-21,1.2,-1.8
CCOC(=O)c1c(C)[nH]c(C(=O)OCC(=O)Nc2sccc2C(N)=O)c1C,-2,25,-5,-7,5.2,48,22,10,-0.1,-4.7
O=C1CC2(CCCC2)CC(=O)N1c1ccccc1,-4,-2,11,13,-3.3,1,-4,-5,-0.1,-2.5
NC(=O)N/N=C/c1sc(N2CCCCC2)nc1-c1cccs1,97*,-24,6,-2,4.7,3,2,-4,-2.1,3.9
CCn1c(/C=C/c2ccccc2)nc2ccccc21,4,-4,nt,nt,nt,26,32,-4,-10,0.3
CCC(C)NC(=O)N1c2ccccc2Sc2ccccc21 (configuration not stated),66,-1,-31*,-23*,0.6*,5,4,24,-0.5,-4.0
CCN(CC)c1ccc(/C=C(/C#N)C(=O)NCc2ccccc2)o1,43,0,-8,-18,0.6,7,4,7,0.2,-37
Cc1cccc(N2CCN(C(=O)c3ccc(CS(=O)Cc4cccc(Cl)c4)o3)CC2)c1C (configuration not stated),100*,4,-31,-64,28,0,22,-13,-0.3,6.2
CC1CN(S(=O)(=O)Cc2ccccc2)CC(C)O1 (configuration not stated),1,-9,nt,nt,nt,-1,-2,8,1.2,-0.6
COc1ccc(-c2c(C)oc3c(CN4CCOCC4)c(O)ccc3c2=O)cc1,-8,-7,-47,-18,-21,-2,5,-3,0.3,-0.9
C(=N\n1cnnc1)/c1cn(Cc2ccccc2)c2ccccc12,-4,-10,nt,nt,nt,-8,-22,32,-0.4,-0.1
COc1cc(C(=O)NC2CCN(C)CC2)ccc1Nc1ncc2c(n1)N(C1CCC(O)CC1)CCC(=O)N2C (configuration not stated),-2,-3,nt,nt,nt,-1,nt,nt,-0.7,0.1
Cc1ccccc1-n1nc2c(c1NC(=O)c1ccc(Br)o1)CSC2,-9,14,nt,nt,nt,-2,?,-6,-0.8,-1.9
CCCC(c1nnnn1CC1CCCO1)N1CCN(c2ccccc2)CC1 (configuration not stated),98*,-3,17,11,0.6,-2,-13,0,1.0,-3.9
O=C(CCC(=O)N(CC(=O)NC1CCCC1)C1CCCC1)Nc1ccccn1,0,0,nt,nt,nt,-6,-9,8,0.3,0.4
Cc1ccc(-c2cc(C(=O)NC3CCCC3)no2)cc1,-1,5,1,8,-3.0,-1,4,-4,-1.7,3.8
COc1cc2c(cc1OC)CN(C(=O)c1cccc(S(=O)(=O)N3CCc4ccccc43)c1)CC2,-3,13,-35,-37,-3.5,1,nt,nt,0.6,-5.9
Cc1oc(-c2ccccc2F)nc1CS(=O)CC(=O)NCc1ccccn1 (configuration not stated),99*,2,5,-2,-0.7,-6,-10,9,-0.1,0.5
COc1ccccc1NC(=O)COC(=O)C1CCCC1,21,0,12,4,-0.3,0,nt,nt,0.4,3.2
CCCCCCSC1=C(C#N)C(c2ccccc2)CC(=O)N1 (configuration not stated),-4,-5,-10,-2,-4.3,-9,9,11,-0.3,-0.1
CCc1ccc(CN(C)C(=O)CCc2nnc(CCc3cccc(OC)c3)o2)nc1,0,0,nt,nt,nt,1,-33,0,-1.6,-0.5
Cc1ccc(NC(=O)CSC2=C(C#N)C(c3ccco3)CC(=O)N2)cc1 (configuration not stated),99*,11,nt,nt,nt,1,4,-5,1.0,1.5
Cc1cccc(N2C(=O)C3C4C=CC(C4)C3C2=O)c1 (configuration not stated),-4,0,nt,nt,nt,-4,0,-6,0.8,-5.0
CC(C)CNC(=O)N[C@@H](CC(C)C)C(=O)O,nt,1,-1,3,-1.8,-2,1,-11,0.4,-0.6
Cc1ccc(S(=O)(=O)N2CCC(NC(=O)C3CCCCC3)CC2)cc1,-12,5,4,7,-4.1,-3,-4,-6,0.7,1.5
COc1ccc(N2CCN(C(=O)CSc3nnc(-c4cccnc4)n3-c3ccccc3)CC2)cc1,94*,-7,nt,nt,nt,5,1,-20,-0.2,2.1
Cc1cc(CN(C)C)c(O)c(C2(C)CCCCC2)c1,-3,4,nt,nt,nt,-5,6,-5,-0.1,-1.3
COCCn1c(SCC(=O)Nc2cccnc2Cl)nc2ccccc2c1=O,19,-8,-1,3,-0.2,-7,nt,nt,0.8,-1.5
C=CCN=C1SC(C)(C)C(=O)N1S(=O)(=O)c1ccc(C)cc1,-9,5,0,-2,-3.9,-2,60,-3,1.9,-5.4
Cc1nnc(NC(=O)CC(CN(C)S(=O)(=O)c2ccccc2)c2ccccc2)s1 (configuration not stated),nt,8,-8,-24,3.6,1,-3,0,-0.4,5.8
COc1cc(C(=O)OCc2ccc([N+](=O)[O-])cc2)cc(OC)c1OC,-7,-1,12,4,1.6,1,4,3,0.4,-6.5
O=C(NCc1cccs1)C1CCC(=O)N1C1CCCCC1 (configuration not stated),-1,4,nt,nt,nt,nt,0,-9,0.5,4.5
COc1ccc(C(=O)NN/C(C)=C/C(=O)c2ccccc2)cc1,nt,3,2,4,-1.5,2,-2,6,-0.5,3.3
O=C(O)c1ccc(CNC(=O)C23CC4CC(CC(C4)C2)C3)cc1,-5,3,1,7,-2.7,-3,-3,0,0.5,2.1
COc1cccc(OC)c1C(=O)Nn1c(C2CCC2)nc2ccccc2c1=O,-14,1,nt,nt,nt,-8,-11,5,-0.4,-1.7
O=C(/C=C/c1cccc(Cl)c1)c1nc2ccccc2[nH]1,nt,36,nt,nt,nt,-3,99*,-10,0.5,1.6
Cc1ccc2c(c1)-n1c(nc3ccc(C)cc3c1=O)C(Cc1ccccc1)NC2=O (configuration not stated),-3,nt,nt,nt,nt,-1,nt,nt,0.3,-0.2
COc1ccc(CC2CCOC2=O)cc1 (configuration not stated),-1,6,nt,nt,nt,0,-4,1,0.5,-1.8
COc1ccc(CCNC(=O)c2ccco2)cc1OC,9,-3,-1,-3,3.6,-17,-5,-17,0.1,-1.5
CC1CN(Cc2ccccc2)c2nc3c(c(=O)n(CC(N)=O)c(=O)n3C)n2C1 (configuration not stated),0,1,18,11,-1.8,-1,?,-6,-0.7,-1.7
O=C(NC1CCS(=O)(=O)C1)c1cccc(S(=O)(=O)N2CCCC2)c1 (configuration not stated),-6,-12,7,6,0.0,3,-4,-8,2.3,0.4
COc1cc(C2C(C#N)=C(C)NC3=C2C(=O)CC(C)(C)C3)ccc1OCCO (configuration not stated),-32,4,nt,nt,nt,-3,-11,-6,-0.4,-2.9
COc1ncnc2c1NC(=O)CS2,-1,-7,nt,nt,nt,-6,0,-9,0.5,-1.1
CC(=O)Nc1sc2c(c1CN1CCN(c3ccc(F)cc3)CC1)CCCC2,10,-3,nt,nt,nt,3,1,0,0.0,0.1
CCOC(=O)C1(Cc2cccc(OC)c2)CCCN(Cc2c(C)nn(C(C)C)c2C)C1 (configuration not stated),nt,4,4,0,0.8,-1,-8,64*,0.5,1.3
CCOC(=O)C1CCN(c2nc3ccccc3nc2C(C#N)C(=O)OC(C)C)CC1 (configuration not stated),-17,-18,nt,nt,nt,-7,-35,17,0.8,-4.7
COc1cc(-c2nnc(SCC(=O)N(C)C3CCS(=O)(=O)C3)o2)cc(OC)c1OC (configuration not stated),nt,5,13,16,2.9,17,14,-11,0.9,5.3
NC(=O)c1cc([N+](=O)[O-])c(Cl)cc1NCc1ccccn1,15,2,8,7,1.8,2,nt,nt,?,0.0
Cn1nc(C(=O)OCC(=O)Nc2sccc2C(N)=O)c2ccccc2c1=O,nt,-5,9,4,5.6,0,1,1,0.5,-2.2
CC(OC(=O)[C@H](C)NC(=O)c1ccccc1Cl)C(=O)NCc1ccc2c(c1)OCO2 (some centres not stated),-13,-8,4,3,0.1,2,0,-15,-0.4,5.3
COc1ccc(C2N(c3ccccc3)C(=O)C2(F)F)cc1OC (configuration not stated),nt,25,-23*,-8.8*,-3.8*,-2,-6,0,0.2,3.9
C=CCOc1c(OC)cc(Cl)cc1C1NC(=O)NC(C)=C1C(C)=O (configuration not stated),-1,-4,nt,nt,nt,-2,-3,-17,0.1,3.2
CCC(Sc1nncn1C)C(=O)Nc1nnc(-c2ccccc2Cl)s1 (configuration not stated),8,0,0,-21,-2.7,-11,-1,-4,0.2,-3.8
CS(=O)(=O)N(CC(=O)Nc1cccc(Cl)c1)c1ccccc1Cl,-10,-3,nt,nt,nt,-3,17,12,1.7,0.6
COc1ccc(/C=C/C(=O)OCC(=O)Nc2c(C)cccc2C)cc1,-8,-3,17,20,2.7,-1,0,-4,0.8,3.4
Cc1ccc(CN(CC(=O)NCc2ccc3c(c2)OCO3)C(=O)c2csnn2)cc1,-2,1,-2,-1,-0.6,-1,-18,0,-1.3,-0.5
Cc1cc(=O)[nH]c(SCc2nnnn2-c2ccc(Cl)cc2)n1,-14,-1,nt,nt,nt,-1,-5,-20,-0.2,1.7
COc1cccc(C(=O)Nc2ccc3c(c2)n(C)c(=O)n3C)c1,-3,8,4,9,2.9,-9,7,-5,1.2,-1.2
CCCSc1nc2cc(C)c(C)cc2n1CC(O)CO (configuration not stated),-9,5,8,0,-2.5,-2,18,-13,-1.0,-8.3
# The list goes on.
SMILES,ALR H2O2 inh,Beta2AR agonist,Ecoli rRNA inh,Ecoli rRNA inh OD600,Ecoli rRNA inh RFP,Beta apoptosis,Calb FLC,T cruzi inh,A1 inh,LANA-H2B inh
CN(C(=O)COC(=O)c1c[nH]c(=O)[nH]c1=O)C1CCCCC1,-12,-10,nt,nt,nt,-7,1,-23,-0.6,0.4
O=C(CCN1C(=O)C2CC=CCC2C1=O)Nc1ccccc1Cl (configuration not stated),2,2,8,3,5.0,-4,-5,-5,0.3,5.9
COc1ccc(/C=N/NC(=S)NC2CCS(=O)(=O)C2)cc1 (configuration not stated),nt,1,nt,nt,nt,-4,36,-21,-0.6,nt
N/C(=N\OC(=O)CCCCCN1C(=O)c2ccccc2C1=O)c1ccccc1,-6,-5,nt,nt,nt,-1,-2,-2,0.2,2.4
Cc1cc(=O)oc2c(CN3CCCC3)c(O)ccc12,58,-5,10,4,-5.4,-5,1,-6,0.1,0.4
O=c1[nH]c(=O)n(Cc2ccccc2)c2nc(-c3ccc(C(F)(F)F)cc3)n(CCO)c12,nt,5,33,11,13,1,-1,26,0.3,-7.5
Cc1cccc(CN2C(=O)/C(=C\c3ccc(C(=O)NCCCN4CCN(C)CC4)cc3)Oc3ccccc32)c1,-4,16,5,2,9.5,22,5,36,-0.8,-0.3
O=c1oc2ccccc2c2c1ncn2CCN1CCOCC1,nt,5,nt,nt,nt,-5,-2,-15,-0.3,-2.9
